UCH37 DUB inh: human UCH37 deubiquitinating enzyme inhibition | purified proteasome/UCH37, Ub-AMC cleavage fluorescence | inhibition, % (no concentration beside the values) | 330,000 tested, 0.33% active | AID 588478 | Q9Y5K5;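 active = mean of two replicates above 20%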;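 also: 0% = compound-free wells with enzyme and 100% = wells lacking proteasome; stock transfer was 100 nL into about 20 µL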
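System: Proteasome-associated human UCH37 deubiquitinase; Input: 0.15 nM proteasome in added enzyme buffer; Also added: Ub-AMC substrate from 1 µM stock; Incubation: 30 min compound-proteasome preincubation then 25 min substrate reaction, room temperature; Detection: fluorescence, ex 355 nm, em 460 nm; Read-out: % inhibition of Ub-AMC cleavage fluorescence; Benchmarks: no-proteasome and no-compound wells.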
Ecoli growth: E. coli growth inhibition. Escherichia coli growth, OD600, 23 h; active compounds read low. OD600 absorbance (concentration not given with the values). AID 1053175. 330,000 tested, 0.21% active;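 active = OD600 absorbance below the run mean of sample wells minus 3.6 SD, in any replicate, cut at about 0.56 in these data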;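 also: stock transfer was 300 nL into about 60 µL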
FGF22 binding: shifts melting point of recombinant human FGF22 | Q9HCT0 | recombinant FGF22 thermal shift, SYPRO orange fluorescence; percent of sucrose octasulfate shift, DMSO zero | calls only at 9.99 µM | 340,000 tested, 1.5% active;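 active = melting point raised past a set limit in the mean and every replicate; three in four hits are not shown here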
Target sequence (Q9HCT0 whole entry, looked up): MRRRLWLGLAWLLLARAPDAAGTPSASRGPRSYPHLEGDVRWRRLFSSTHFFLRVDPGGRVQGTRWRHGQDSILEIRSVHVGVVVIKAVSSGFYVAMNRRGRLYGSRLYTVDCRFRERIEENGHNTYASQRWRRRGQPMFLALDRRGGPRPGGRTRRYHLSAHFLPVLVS
LANA-H2B inh: blocks KSHV LANA binding to histone H2A/H2B; Q9QR71; cell-free LANA-H2A/H2B peptide, fluorescence polarization; inhibition, % (test concentration not listed); 320,000 tested, 0.6% active; AID 2629; in the data active = inhibition mostly above about 10%, no sharp cut-off; inactive = mostly below about 6.7%;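 also: stock transfer was 7.5 nL into about 10 µL; 0% = median of vehicle wells and 100% = median of positive control wells; one replicate is shown; the record names a cut of 25% in any replicate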
HNF4A DNA FP: change in binding of human HNF4 alpha to DNA; HNF4a-FITC DNA binding, fluorescence polarization, 1 h; 360,000 tested, 0.3% active; activity change, % at 10 µM; in the data active = activity change above about 30%, passing the limit was not always enough;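 also: controls were the assay level and a saturating level of protein; the project sought stronger binding though the title names inhibitors; some compounds called inactive have numbers as strong as hits; positive values seem to mean higher polarization but the record does not say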
ALR H2O2 inh: human ALR oxidase inhibition via reduced H2O2. P55789. purified ALR, DTT oxidation, H2O2 HRP-luminol luminescence. inhibition, % (concentration not given with the values). 290,000 tested, 3.8% active;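 active = mean and each replicate at 75% or more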;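 also: stock transfer was 7.5 nL into about 7.5 µL; 0% = neutral wells and 100% = wells with inactivated enzyme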
Target sequence (P55789 whole entry, looked up): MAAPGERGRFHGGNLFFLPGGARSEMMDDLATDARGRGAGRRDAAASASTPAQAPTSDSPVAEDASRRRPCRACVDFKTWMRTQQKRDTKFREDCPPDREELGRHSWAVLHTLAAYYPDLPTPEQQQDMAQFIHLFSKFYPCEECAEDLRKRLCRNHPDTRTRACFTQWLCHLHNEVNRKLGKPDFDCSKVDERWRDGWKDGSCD
B2AR ag: activates human beta-2 adrenergic receptor causing internalization | Am2.2-beta2AR cells, FAP receptor internalization, flow cytometry; reference of the scale not given here | P07550 | response, % (test concentration not listed) | AID 504454 | 340,000 tested, 0.43% active;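 active = response above a set limit, near 3 SD of response in nonfluorescent compounds, cut at about 42% in these data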;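 also: stock transfer was 100 nL into about 11 µL; a reference agonist was the positive control; negative values mostly stem from fluorescent compounds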
Target sequence (P07550 whole entry, looked up): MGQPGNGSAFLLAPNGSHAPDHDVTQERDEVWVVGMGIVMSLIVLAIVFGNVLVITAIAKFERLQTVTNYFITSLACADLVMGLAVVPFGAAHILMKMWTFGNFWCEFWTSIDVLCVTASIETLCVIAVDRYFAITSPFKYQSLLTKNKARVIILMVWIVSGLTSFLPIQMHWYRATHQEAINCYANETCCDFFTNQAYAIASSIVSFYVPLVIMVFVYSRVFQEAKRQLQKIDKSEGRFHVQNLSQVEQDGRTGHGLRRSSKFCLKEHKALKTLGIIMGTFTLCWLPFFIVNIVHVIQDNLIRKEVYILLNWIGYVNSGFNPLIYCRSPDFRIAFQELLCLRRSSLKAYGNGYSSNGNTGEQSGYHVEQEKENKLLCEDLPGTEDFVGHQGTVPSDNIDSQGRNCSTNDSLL
* = called active by the depositor; i = inactive; . = no result given; + = active, no number.

SMILES | UCH37 DUB inh | Ecoli growth | FGF22 binding | LANA-H2B inh | HNF4A DNA FP | ALR H2O2 inh | B2AR ag
COc1cc(S(=O)(=O)NC2CCCCC2)c(C)cc1C | 0.8 | 0.68 | i | 3.6 | -2.3 | 0 | -1
COc1ccc(Br)cc1/C=C/C(=O)OCC(=O)NCCc1ccc(S(N)(=O)=O)cc1 | -4.9 | 0.7 | i | . | -2.7 | . | 4
Cc1ccc(C(=O)NC(=S)NNC(=O)c2ccccc2)cc1 | 3.0 | 0.65 | i | 4.8 | -2.5 | 98* | -3
COc1ccc(S(=O)(=O)N2CCC(C(=O)Nc3ccc(S(=O)(=O)N4CCCC4)cc3)CC2)cc1OC | 3.9 | 0.7 | i | 4.2 | 2.5 | -8 | -5
COc1ccc(N2CCN(C(=O)Cc3cccs3)CC2)cc1 | 1.8 | 0.72 | . | 1.1 | -1.8 | 97* | -22
COc1ccc(CCn2c(N3CCN(Cc4ccccc4)CC3)nc3c2c(=O)[nH]c(=O)n3C)cc1 | 0.7 | 0.69 | . | 7.5 | -2.9 | 1 | -9
C#Cc1ccc([C@@H]2C=C(C(=O)NC3CC3)O[C@H](OCCCCO)C2)cc1 | 2.3 | . | i | -5.2 | 4.4 | 0 | -4
O=C1NC2(CCCCCC2)C(=O)N1Cc1ccc(Br)cc1 | 5.4 | 0.75 | i | 3.1 | -1.5 | 9 | 6
C=CCOC(=O)C1=C[C@@H](c2csc3ccccc23)C[C@@H](OCCCCO)O1 | 1.1 | . | . | 5.4 | 0.5 | 0 | 4
CCOc1nc(NC2CCCCC2)nc(NC(C)(C)C)n1 | 1.6 | 0.69 | . | 2.6 | -4.1 | 16 | 2
O=C(O)COc1ccc2oc3ccccc3c2c1 | 0.9 | 0.69 | . | 0.7 | 0.1 | 5 | 0
COc1ccc(C(=O)COC(=O)CCN2C(=O)C3C4CC(C(Br)C4Br)C3C2=O)cc1 (centres undefined) | 3.8 | 0.72 | . | 1.0 | 3.0 | 6 | 4
COc1cc(/C=C2\SC(N3CCCCC3)=NC2=O)cc(OC)c1OC | 1.8 | 0.68 | i | 2.2 | -0.1 | . | 7
O=C(c1cccc(F)c1)N1CCN(C(=O)c2cc3nc(-c4ccco4)cc(C(F)(F)F)n3n2)CC1 | -90 | 0.67 | i | 0.8 | -2.1 | 1 | -7
CC(=O)c1ccc(N2CCN(C(=O)C3(S(=O)(=O)c4ccc(Cl)cc4)CC3)CC2)cc1 | -0.3 | 0.7 | . | -2.7 | 3.8 | -1 | -6

4 entries drawn at random from the list so far:
SMILES | UCH37 DUB inh | Ecoli growth | FGF22 binding | LANA-H2B inh | HNF4A DNA FP | ALR H2O2 inh | B2AR ag
O=C1NC2(CCCCCC2)C(=O)N1Cc1ccc(Br)cc1 | 5.4 | 0.75 | i | 3.1 | -1.5 | 9 | 6
COc1cc(S(=O)(=O)NC2CCCCC2)c(C)cc1C | 0.8 | 0.68 | i | 3.6 | -2.3 | 0 | -1
C#Cc1ccc([C@@H]2C=C(C(=O)NC3CC3)O[C@H](OCCCCO)C2)cc1 | 2.3 | . | i | -5.2 | 4.4 | 0 | -4
COc1ccc(C(=O)COC(=O)CCN2C(=O)C3C4CC(C(Br)C4Br)C3C2=O)cc1 (centres undefined) | 3.8 | 0.72 | . | 1.0 | 3.0 | 6 | 4

Continued.
SMILES | UCH37 DUB inh | Ecoli growth | FGF22 binding | LANA-H2B inh | HNF4A DNA FP | ALR H2O2 inh | B2AR ag
CCCCc1c(O)nc(SCC(=O)c2ccccc2)[nH]c1=O | 3.6 | 0.75 | . | 8.2 | 0.2 | 99* | 4
CC(=O)Nc1cccc(C(=O)OCC(=O)NC2CCCCCCC2)c1 | 2.0 | 0.69 | i | -3.0 | 2.4 | 1 | 1
COc1ccc(-c2noc(N3CCC(C(=O)N(C)c4ccccc4)CC3)n2)cc1 | 4.7 | 0.71 | i | 4.7 | 0.7 | -2 | -3
CCOC(=O)C1CCCN(C(=O)c2sc3nc(-c4ccc(OC)cc4)cn3c2C)C1 (centres undefined) | 5.5 | 0.73 | . | -6.3 | 2.0 | 0 | 10
O=C(Nc1nccs1)c1cc(S(=O)(=O)N2CCOCC2)c(Cl)cc1Cl | 5.9 | 0.67 | . | 4.4 | -2.7 | -1 | 16
O=C(Nc1ccccc1N1CCOCC1)c1ccccc1NS(=O)(=O)c1ccc(F)cc1 | 2.6 | 0.67 | . | 1.7 | -3.0 | 67 | 11
O=C(CN(Cc1ccccc1Cl)C(=O)c1csnn1)NC1CCCC1 | 0.6 | 0.7 | i | -0.4 | -1.6 | 0 | 5
N#Cc1ccccc1NC(=O)c1ccccc1OCC(=O)Nc1ccc2c(c1)oc1ccccc12 | 0.0 | 0.69 | i | -1.0 | -0.4 | . | 1
COc1ccccc1CN(C)S(=O)(=O)c1cccs1 | . | . | i | 1.2 | 4.7 | -2 | -4
Cc1cccc(Cn2c(N(C)Cc3ccccc3)nc3c2c(=O)[nH]c(=O)n3C)c1 | 4.2 | 0.73 | i | -1.1 | -0.6 | -13 | 2
Cc1ccc(N=Nc2ccc3ccccc3c2O)cc1 | 8.6 | 0.69 | i | -3.6 | 2.5 | . | -12
Cc1sc(-c2ccccn2)nc1OC(=O)c1cccc(Cl)c1Cl | 2.7 | 0.71 | . | 1.3 | 4.7 | 8 | 0
CCCn1nc(C(=O)NC2CC2)c2ccccc2c1=O | -0.3 | 0.68 | i | -4.6 | 3.3 | -2 | -5
O=P(CCN1CCCCC1)(c1ccccc1)c1ccccc1 | 1.9 | 0.67 | . | 0.2 | 2.9 | -11 | 3
CC(=O)c1ccc(S(=O)(=O)N2CCC(c3nc4ccccc4[nH]3)CC2)cc1 | . | . | i | -3.1 | 1.1 | 0 | -15
CCOCCn1c(=NC(=O)CSCC(=O)N2CCOCC2)sc2cc(OC)ccc21 | -7.2 | 0.71 | i | 1.5 | 4.8 | 9 | -8
CN(NC1OC(=O)c2ccccc21)c1ncc(Cl)cc1C(F)(F)F (centres undefined) | 7.3 | 0.67 | i | -1.9 | -0.2 | 7 | 13
COc1ccc(C[C@H]2CN3C(=NC[C@H]3Cc3ccccc3)N2CCNC(=O)CCC2CCCCC2)cc1 | -2.5 | . | i | -9.5 | -0.4 | . | 8
CCN(CC)CCCN(Cc1cc2cc(OC)c(OC)cc2[nH]c1=O)C(=O)Nc1ccccc1 | -42 | 0.68 | . | -1.7 | 1.7 | -4 | -5
CC(=O)C1=C(C)N(CC2CC2)C(=O)N[C@H]1c1ccc(Br)cc1 | 5.4 | . | i | -4.5 | 1.5 | -2 | -12
COC(=O)c1cc(C)sc1NC(=O)CC1Nc2ccccc2NC1=O (centres undefined) | 2.2 | 0.73 | i | . | 4.8 | . | 7
O=C(Nc1cccc2ccccc12)c1cccc([N+](=O)[O-])c1 | 8.0 | 0.63 | + | -0.3 | -3.2 | -2 | -3
Cc1cccc(N(CC(=O)N2CCCC2)S(=O)(=O)c2ccccc2)c1C | -0.1 | 0.71 | . | 3.1 | -0.3 | -1 | 3
O=c1[nH]c(/C=C/c2cccc3ccccc23)nc2ccccc12 | -44 | 0.71 | i | -2.1 | 18 | -5 | 0
CCc1ccc(CN(C)C(=O)c2cc(COc3cccc(C(F)(F)F)c3)on2)nc1 | 0.8 | 0.66 | i | -11 | 4.0 | 1 | 1
FC(F)(F)c1nnc2c(Sc3ccccn3)nc3ccccc3n12 | 9.8 | 0.75 | . | 5.9 | -1.0 | 43 | 32
Cc1cccc(NC(=S)N/N=C/c2cccc(O)c2)c1C | . | . | i | 0.4 | -2.2 | . | -10
CC(C)(C)NS(=O)(=O)c1ccc(OCC(=O)NCCC2=CCCCC2)cc1 | 6.6 | 0.72 | . | -4.5 | -1.6 | -32 | 4
CC(=O)c1ccc(N2CCN(C(=O)CCC(=O)c3cccs3)CC2)cc1 | 6.0 | 0.65 | i | -2.8 | 0.2 | . | 0
O=C(COc1cccc(F)c1)Nc1nc(-c2ccncc2)cs1 | 0.9 | 0.64 | i | -2.5 | 2.2 | -4 | 16
O=C1c2ccccc2C(=O)N1Cc1nc2ccccc2c(=O)n1CCCN1CCOCC1 | 4.5 | 0.73 | . | 2.2 | -0.5 | 2 | -6
Cc1c(Br)c([N+](=O)[O-])nn1C(C)C(=O)N1CCc2ccccc2C1 (centres undefined) | 4.7 | 0.72 | i | -1.3 | 0.9 | 4 | 2
CCOc1ccc(S(=O)(=O)N(CC)CC(=O)NCc2cccnc2)cc1C | 2.2 | 0.66 | i | -9.3 | 3.9 | -1 | -5
Cc1ccc(-n2c(=O)cc(NCc3cccnc3)[nH]c2=O)cc1 | 2.6 | 0.69 | . | -2.8 | 4.4 | 0 | -2
CN(C)C(=O)c1ccc(NC(=O)CSc2nc3ccccc3[nH]2)cc1 | 3.4 | 0.64 | i | 2.0 | 3.7 | 35 | -6
CCO[C@H]1OC(C(=O)N2CCN(C)CC2)=C[C@@H](c2csc3ccccc23)[C@@H]1CCCO | 5.2 | . | i | 4.2 | 0.5 | 1 | -5
COc1ccccc1C/C(N)=N/OC(=O)COc1cccc(C)c1C | 2.9 | 0.69 | i | + | -0.8 | -3 | 1
CC12CCC(C(=NO)C1=NO)C2(C)C (centres undefined) | -3.1 | 0.67 | i | . | 2.5 | . | -3
COc1ccc(Cl)cc1NC(=O)CSc1nnc(-c2ccco2)o1 | 4.7 | 0.68 | i | -1.2 | 3.6 | -1 | 0
COc1cccc(/C=C2\SC(N)=NC2=O)c1OS(=O)(=O)c1ccccc1 | -16 | 0.7 | . | -5.4 | -5.7 | 3 | 5
C=CCN1C=C2C(=O)C(C)(OC(=O)C3CCCC3)C(=O)C(c3ccccc3)=C2C=C1CCCC(=O)OC (centres undefined) | 2.5 | 0.62 | i | 3.4 | -5.9 | . | -3
Clc1ccc(CNc2ccccc2NCc2ccc(Cl)nc2)cn1 | -5.0 | 0.72 | i | 2.7 | 3.1 | . | 1
COCCNS(=O)(=O)c1cc(OC)c(C)cc1C | 4.3 | 0.63 | i | 1.5 | -6.4 | -4 | -2
O=C(NCc1nnc(SCC(=O)N2CCN(c3ccccc3)CC2)o1)c1ccccc1 | 2.5 | 0.72 | i | 3.5 | -1.9 | 0 | 1
CCC(C)NC(=O)c1ccc(-n2c(=S)[nH]c3ccccc3c2=O)cc1 (centres undefined) | 4.7 | 0.67 | i | 1.4 | -1.9 | -7 | -6
CC1(c2ccc3ccccc3c2)NC(=O)N(CC(=O)N2CCN(Cc3ccccc3)CC2)C1=O (centres undefined) | 0.0 | 0.64 | . | -4.1 | 0.0 | 2 | -1
CC(C)C(NC(=O)C1CC(=O)N(Cc2ccccc2)C1)c1nc2ccccc2[nH]1 (centres undefined) | 2.2 | 0.71 | i | 2.5 | -2.0 | . | 1
COc1cccc(C(=O)OCc2ccccc2C#N)c1O | 3.4 | 0.71 | . | 0.1 | 1.8 | 0 | -8
CC(C)N1CCC(N2CCN(Cc3ccc4nsnc4c3)CC2CCO)CC1 (centres undefined) | 7.3 | 0.67 | i | 3.4 | -6.1 | -16 | 4
Nc1cc(C(=O)N2CCCC2)cc(C(=O)N2CCCC2)c1 | -4.0 | 0.65 | . | -4.2 | -0.1 | -8 | -7
O=C(NNC(=O)C1CCN(c2ncccn2)CC1)c1ccccc1 | -3.6 | 0.66 | i | -2.9 | -1.6 | 3 | 3
CC1CCCCN1C(=O)CNCc1ccc(F)cc1 (centres undefined) | -0.2 | 0.65 | i | -1.7 | -1.5 | -22 | .
Cc1ccc2c(CNCc3ccccc3)cc(=O)oc2c1 | -0.2 | 0.62 | i | 2.2 | 2.9 | -8 | 0
Cc1ccc(C(=O)COC(=O)c2cc(Cl)ccc2O)cc1[N+](=O)[O-] | 1.2 | 0.78 | i | 4.8 | 4.7 | 3 | 3
COc1ccc(COCC(O)CN2CCC(CN3C(=O)c4cccc5cccc(c45)C3=O)CC2)cc1OC (centres undefined) | -72 | 0.7 | . | -1.0 | -1.0 | -27 | 16

Assay outcomes deposited in PubChem BioAssay by several laboratories.

A portion of the library; the hit share may differ from the screen's.
